# gsp agonist – agonists of gsp mutant (McCune-Albright syndrome). gsp mutant cells, cAMP HTRF, 30 min; control for the full effect not named in the record. Potency, µM (highest dose often 76.9 µM), for the others: at the top dose activation (cAMP increase), usual class: activators. 0.13% of 340,000 active. AID 624287; active = well fitted activation curve with a large enough effect; inconclusive = small, poorly fitted or top-dose-only effect, or another doubt; inactive = no such curve, though single readings can be large or run the other way; cell line not stated here;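 further: phosphodiesterase inhibitor Ro 20-1724 added with compounds to block cAMP breakdown; potency means the concentration at half of the fitted maximal effect; nearly all actives have a fitted effect of over 60% in size; about a fifth of the inactives were tested at one dose only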
#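 Cells stably selected in G418 were plated at 2000/well, grown 16-24 hr, then given compounds in DMSO with the PDE inhibitor […] (300 uM solution added) for 30 min at 37C; cAMP was read by HTRF.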
# gsp antagonist – gsp mutant antagonism; gsp-mutant cells, cAMP HTRF, 30 min; control for the full effect not named in the record; Potency, µM (series often up to 76.9 µM), without a hit: at the highest dose activity change, negative = inhibition, most hits filed as inhibitors; 0.4% of 340,000 active; AID 624288; active = falling curve of any shape with a large fitted effect; inconclusive = falling curve, mostly with a smaller effect; inactive = flat or rising curve; cell line not stated here;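 further: intracellular cAMP measured with PDE inhibitor Ro 20-1724 present during compound exposure; potency means the concentration at half of the fitted maximal effect; on the % scale 0 is the no-effect control and ±100 the full control effect; nearly all actives have a fitted effect of over 65% in size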
#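 HTRF cAMP read-out (cAMP-d2 plus anti-cAMP antibody-K in lysis buffer, 30 min RT). Before lysis, cells are exposed to compounds with […] for 30 min at 37C in DPBS containing Ca/Mg, BSA and Tween 20.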
# Menin MLL FP FL – menin-MLL binding inhibition, fluorescein peptide | FP activity change, % at 61.4 µM | 290,000 tested, under 10 active | Fluorescence polarization, fluorescein-MLL peptide displacement from menin; inconclusive = falling polarisation curve, or a change in total fluorescence; inactive = total fluorescence flat and polarisation flat or rising; no compound was filed as active; the % refers to the polarisation; negative = inhibition;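 further: % of control where 0% means no effect; inhibitors lower the polarisation; unlabelled MLL peptide was the positive control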
# TRPML1 inh – blocks the human TRPML1 channel | Q9GZU1 | TRPML1-inducible cells, Ca2+ dye fluorescence, FDSS; active compounds read low; inhibition of EC80 agonist-evoked calcium signal | activity change, negative = inhibition, % (test concentration not listed) | 0.02% of 390,000 active | AID 624415; in the data active means activity change below about -50%; inconclusive means about -30% to -50%; inactive means above about -30%;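 further: stimulus is agonist 54-4 at its EC80 concentration; on the % scale 0 is the no-effect control and ±100 the full control effect; compound concentration not given in the record; the text of the record puts the active cut at -80%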
# Target sequence (Q9GZU1 whole entry, looked up): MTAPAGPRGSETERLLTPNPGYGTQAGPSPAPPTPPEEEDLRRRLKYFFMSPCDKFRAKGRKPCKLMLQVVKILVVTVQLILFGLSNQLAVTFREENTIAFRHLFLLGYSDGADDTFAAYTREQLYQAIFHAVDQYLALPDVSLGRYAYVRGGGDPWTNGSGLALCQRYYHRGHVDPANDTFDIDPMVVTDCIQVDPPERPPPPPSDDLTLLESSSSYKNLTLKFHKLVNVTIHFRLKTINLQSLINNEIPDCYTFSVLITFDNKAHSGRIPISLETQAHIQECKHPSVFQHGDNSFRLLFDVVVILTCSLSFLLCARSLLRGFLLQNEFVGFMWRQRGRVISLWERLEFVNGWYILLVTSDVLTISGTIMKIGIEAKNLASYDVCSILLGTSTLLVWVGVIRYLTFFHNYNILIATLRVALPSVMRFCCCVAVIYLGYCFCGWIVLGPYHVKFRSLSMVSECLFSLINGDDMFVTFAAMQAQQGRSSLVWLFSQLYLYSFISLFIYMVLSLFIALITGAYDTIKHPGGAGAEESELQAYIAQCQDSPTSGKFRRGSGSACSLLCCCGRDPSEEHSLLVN
#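 TRPML1-DL cells, Tet-induced overnight (~16 h, 37 °C) at 1,500 cells/well, were loaded with Ca8 no-wash dye plus quencher for 45-90 min at room temperature. Compounds were pinned during FDSS kinetic reading; agonist 54-4 at EC80 (4 uM final) then added.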
# TRPML1 ag – activates the human TRPML1 channel | TRPML1-expressing cells, Ca2+ dye fluorescence, FDSS; host cell line not named in the record; reference of the full effect not given here | activation, % (test concentration not listed) | 0.12% of 410,000 active | AID 624414; in the data active = activation above about 50%; inconclusive = about 30% to 50%; inactive = below about 30%; further: 0% is about no effect; the text of the record puts the active cut at 80%
#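 Kinetic FDSS Ca2+ read in Tet-induced TRPML1-DL cells (ABD Ca8 dye plus quencher, 45-90 min RT loading): baseline, then compound, then 110 s agonist window; EC80 agonist 54-4 at 4uM final added afterwards for a 110 s antagonist window.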
# ClpP mod – qHTS Assay for Activators of ClpP | Potency, µM (doses to about 57.5 µM), inactives show at the top dose activity change, negative = active | ATP-dependent Clp protease proteolytic subunit (Bacillus subtilis (strain 168)), P80244 | 1.9% of 340,000 active | purified B. subtilis ClpP, FRET peptide cleavage, 20 min | AID 651965, 2013; active = well fitted falling curve with a large enough effect; inconclusive = small, poorly fitted or top-dose-only effect; inactive = no such curve, though single readings can be large or run the other way; further: potency means the concentration at half of the fitted maximal effect; the source files actives as falling curves though it sought activators and does not explain the sign; nearly all actives have a fitted effect of over 65% in size; many hits overshoot -100%
# Target sequence (P80244 whole entry, looked up): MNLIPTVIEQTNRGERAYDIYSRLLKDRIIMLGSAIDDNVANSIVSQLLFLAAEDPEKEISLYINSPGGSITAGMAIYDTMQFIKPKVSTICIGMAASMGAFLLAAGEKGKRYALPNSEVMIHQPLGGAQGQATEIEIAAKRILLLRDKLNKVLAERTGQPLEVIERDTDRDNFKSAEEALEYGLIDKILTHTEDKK
#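 Purified B. subtilis ClpP, 10 microg/mL final in Tris/HCl pH8 with KCl, BSA, glycerol and Tween-20, cleaved an Abz/nitrotyrosine-quenched decapeptide. Fluorescence (ex 320, em 430) was read at 0 and 20 min at room temperature. Delta was normalized to 5.8 microM ADEP and DMSO/no-enzyme controls.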
# * marks the source's active call; other numbers are inactive results; ? = inconclusive; . = not tested or not shown; & = joins results of further samples; [ ] = remark or other dose.
SMILES,gsp agonist,gsp antagonist,Menin MLL FP FL,TRPML1 inh,TRPML1 ag,ClpP mod
COc1ccccc1CNC(=O)C1CC(=O)N(c2ccc(C)c(C)c2)C1 (configuration not stated),-8%,-1%,-2.7,2,-0.1,0.2%
Cc1ccc(Cn2c(=O)n(CCC(=O)NCc3ccc4c(c3)OCO4)c(=O)c3ccccc32)cc1,13%,11%,1.8,5,0.8,-6.9%
CCOc1ccccc1CNCc1c(C(=O)O)n(Cc2ccccc2)c2cc(OC)ccc12,.,.,.,-1,-0.5,-4.9%
O=C(CCCN1C(=O)C2CC=CCC2C1=O)Nc1ccccc1F (configuration not stated),?,12%,.,-3,-0.3,0.7%
CCCn1c(=O)c(C(=O)Nc2cccc(C)c2)c(O)c2ccccc21,-18%,5%,3.8,.,.,-21%
COc1ccc(C(=O)NCCCNC(=O)c2cnccn2)cc1,-3%,2%,-1.0,-7,-0.1,.
O=C(c1ccc(CSCc2ccccc2F)o1)N1CCN(c2ccc(N3CCOCC3)nn2)CC1,-2%,-10%,0.1,0,0.7,?
O=C1NC(=O)C2C3OC(C(Br)C3Br)C12 (configuration not stated),12%,.,.,-10,0.5,-3.3%
CCN(c1ccccc1)S(=O)(=O)c1cccc(C(=O)NCC2(N(C)C)CCCCC2)c1,-36%[inhibitor],3%,.,13,0.7,1.0%
Cc1cccn2c(=O)c(/C=C(\C#N)c3nc4ccccc4s3)c(Oc3ccc(F)cc3)nc12,.,.,.,8,-0.4,4.0%
O=C(CCN1C(=O)/C(=C/c2cccs2)SC1=S)Nc1ccc(O)cc1,11%,1%,?,34,0.7,.
COc1ccc(N2CCN(C(=O)[C@H](C)N3C(=O)C4CC=CCC4C3=O)CC2)cc1 (some centres not stated),20%,4%,.,8,0.6,.
N#Cc1c2c(c(Nc3ccc(O)cc3)n3c1nc1ccccc13)CCC2,-23%,6%,1.9,1,2.4,-1.6%
COc1cc(-c2nc3ccccc3nc2-c2ccc(O)c(OC)c2)ccc1O,-4%,-3%,0.2,19,1.2,2.1%
CCOC(=O)C1=C(N)OC2=C(C(=O)CCC2)C1c1cccnc1 (configuration not stated),-2%,8%,2.2,-9,-0.1,-2.2%
O=C(NCc1ccco1)C12CC3CC(C1)CC(C(=O)NCc1ccco1)(C3)C2,-58%[inhibitor],-1%,3.4,-10,-0.2,-2.2%
COc1ccc(S(=O)(=O)N2CCN(C(=O)c3cccc(S(=O)(=O)N4CCCC4)c3)CC2)cc1,-42%[inhibitor],.,.,14,-1.0,-4.3%
COC(=O)c1cc2sccc2n1Cc1nc(-c2cccc(Cl)c2)oc1C,-6%,1%,2.2,9&13,-0.4&-1.0,1.6%&-21%
CC(C)NC(=O)CSc1nc2ccccc2c(=O)n1CCCOC(C)C,?,0%,3.5,2,0.7,-1.2%
COc1ccc(-c2ccc(SCC(=O)Nc3cccc(C(C)=O)c3)nn2)cc1OC,5%[15.4 µM],-16%,-2.2,2,1.7,.
CSc1cccc(NS(=O)(=O)c2ccc3c(c2)oc(=O)n3C)c1,-2%,-3%,-0.9,-7,0.4,1.9%
CCc1cccc(C)c1NC(=O)Cn1cc2c(n1)CCCC2,.,.,.,-8,-0.9,0.7%
O=c1ccc(-c2ccc(S(=O)(=O)Nc3cccc(F)c3)o2)n[nH]1,?,3%,1.3,18,-0.2,-0.5%
Cc1ccc(NC(=O)c2cc(C(=O)c3cc(Cl)ccc3O)cn(-c3ccc(C)cc3)c2=O)cc1,5%,-2%,7.7,83,0.3,13%
O=C(CN1C(=O)N/C(=C\c2ccccc2OCc2ccc(C(=O)O)cc2)C1=O)Nc1ccccc1F,-4%,-3%,5.0,-5,0.1,.

# Look-ups from the results shown.
# Reading for O=C(c1ccc(CSCc2ccccc2F)o1)N1CCN(c2ccc(N3CCOCC3)nn2)CC1 in gsp antagonist: -10%
# Reading for O=C(CN1C(=O)N/C(=C\c2ccccc2OCc2ccc(C(=O)O)cc2)C1=O)Nc1ccccc1F in TRPML1 ag: 0.1
# Reading for Cc1ccc(NC(=O)c2cc(C(=O)c3cc(Cl)ccc3O)cn(-c3ccc(C)cc3)c2=O)cc1 in Menin MLL FP FL: 7.7

# Going on with the list.
SMILES,gsp agonist,gsp antagonist,Menin MLL FP FL,TRPML1 inh,TRPML1 ag,ClpP mod
COCCNC(=O)CN1CCOc2ccccc21,-33%[inhibitor],9%,1.7,4,0.1,-1.9%
Cc1cc(Nc2ccccc2C(=O)O)nc2nc3ccccc3c(=O)n12,7%,7%,3.9,-22,1.3,5.3%
CN(C(=O)COC(=O)c1cc(-c2ccc(Cl)s2)nc2ccccc12)C1CCS(=O)(=O)C1 (configuration not stated),1%,2%,0.7,13,1.8,4.3%
CC(COC(=O)c1ccccc1)(COC(=O)c1ccccc1)/[N+]([O-])=C/c1ccccc1,-3%,8%,8.2,-16,0.8,1.3%
CC(=O)Nc1cccc(C(=O)N/N=C/c2cccnc2)c1,12%[15.4 µM],-4%,2.4,9,-0.6,.
O=C(c1cnn2ccccc12)N1CCc2ccccc21,26%,6%,1.3,10,-0.6,2.8%
O=C1NC(=O)C(c2ccccc2)(c2ccccc2)N1,.,-10%&-9%,-5.1&5.8&4.4&0.7&4.3&3.3,2&14,-0.9&-1.1,2.5%&0.3%
CCOC(=O)c1cc(-c2ccccc2)sc1NC(=O)C(C)(C)C,-1%,3%,7.0,28,-0.2,-19%
O=C(Cn1c(=O)cnc2ccccc21)NCC(=O)Nc1ccc(F)c(F)c1,24%,3%,.,-4,-0.3,-17%
COc1ccccc1NC(=O)CSc1nc(=O)n(CCN2CCOCC2)c2c1CCC2,-5%,-4%,.,1,-0.5,-2.4%
CCOc1cccc2sc(N3CCN(C(=O)c4ccco4)CC3)nc12,.,.,.,-15,1.3,-0.7%
Oc1ccc(C=Nc2cccc3ncccc23)c(O)c1,-32%[inhibitor],?,3.1,8,-0.2,0.9%
Cc1ccc(S(=O)(=O)N2CCC[C@H]2C(=O)NC2CCCCC2)cc1,10%[15.4 µM],6%,.,-9,-0.2,1.4%
O=C(NCCCN1CCOCC1)C(=O)NCC1CCCO1 (configuration not stated),-37%[inhibitor],-4%,0.3,-1,0.1,-0.6%
Cc1c(C(=O)NCC2COc3ccccc3O2)oc2ccc(S(=O)(=O)N3CC(C)CC(C)C3)cc12 (configuration not stated),-4%,0%,4.5,-10,1.9,-26%
CNS(=O)(=O)c1cc(-c2nnc(Nc3ccc(CC(N)=O)cc3)c3ccccc23)ccc1C,14%,-4%,0.5,-18,1.2,-1.5%
Cc1ccc(S(=O)(=O)N2CCC(C(=O)OCC(=O)N(C)CC(=O)Nc3ccc(F)cc3)CC2)cc1C,5%[15.4 µM],-17%,.,20,1.9,.
O=C(Nc1ccccc1N1CCCC1)c1ccc2ccccc2c1,0%,?,-2.6,68,1.0,1.2%
COc1ccccc1CCC(=O)N(Cc1ccccc1)c1c(N)n(Cc2ccccc2)c(=O)[nH]c1=O,-47%[inhibitor],-21%,.,17,1.2,-5.7%
NC(=O)CC(NC(=O)c1ccc(Br)cc1)c1ccc(NCc2ccc(F)cc2)c([N+](=O)[O-])c1 (configuration not stated),.,1%,-9.5,8,0.1,2.5%
O=C(NNC(=O)C1CCCCC1)c1cnccn1,22%,14%,1.8,0,0.7,-0.6%
CCCc1cc(=O)oc2cc(C)c3c(C(C)(C)C)coc3c12,.,.,.,-1,0.5,?
COP(=O)(/C=C/c1ccccc1)C(O)c1ccc(F)cc1 (configuration not stated),?,0%,2.1,6,0.1,-2.4%
O=C(N/C(=C/c1cccc(Br)c1)C(=O)N1CCCCC1)c1ccco1,?,.,.,10,-0.2,0.2%
Cc1ccc(N2C(N)=C(C#N)C(c3cccnc3)C3=C2CCCC3=O)cc1 (configuration not stated),0%,-2%,0.6,56,0.0,-5.9%

# The listing continues:
SMILES,gsp agonist,gsp antagonist,Menin MLL FP FL,TRPML1 inh,TRPML1 ag,ClpP mod
Cc1ccccc1N(CC(=O)NCCSc1ccccn1)S(=O)(=O)c1ccccc1,-12%[15.4 µM],-10%,11,1,-0.2,.
CCCOc1ccc(/C(CC)=N/NC(=O)C2(C)CC2(Br)Br)cc1 (configuration not stated),-8%[15.4 µM],-5%,12,36,1.1,-1.1%
CCOCC(O)CNC(=O)c1ccc2nc(Cc3ccc(OC)c(OC)c3)oc2c1 (configuration not stated),-10%,12%,0.9,26,-0.3,.
CC1CCC(NC(=O)Cn2c(=O)[nH]c3ccsc3c2=O)CC1 (configuration not stated),-3%,1%,-2.2,-10,-0.3,4.3%
CC1(C)CC(=O)C2=C(C1)Nc1ccccc1N1C(=O)c3ccccc3C21 (configuration not stated),6%,-11%,0.2,-8,-0.8,0.5%
COc1ccc(OCC(=O)Nc2ccccc2OC)cc1,?,-2%,-2.0,13,1.9,-2.7%
Cc1cc(Br)cn2c(Cc3ccsc3)c(-c3ccccc3)nc12,.,.,.,-6,0.9,-3.0%
Cc1ccc(CCNC(=O)c2cn(C)c3ccc(S(=O)(=O)N(C)C4CCCCC4)cc3c2=O)cc1,.,.,.,-9,-0.4,-0.7%
COc1cc(OC)cc(C(=O)Nc2ccc(-c3nc4cc(C(C)C)ccc4o3)cc2)c1,.,.,.,-8,-0.2,3.6%
CCc1ccc(C(=O)NNc2cc(Cl)cc(Cl)c2)cc1,?,-31%,0.3,-21,1.4,.
CC1(C)CC(=O)CC(C)(C)N1OC(=O)c1ccncc1,-2%,6%,1.2,-1,0.6,-0.4%
COc1ccc(NC(=O)CC2C(=O)N(c3cccc(OC)c3)C(=O)N2Cc2cccnc2)cc1 (configuration not stated),.,.,.,8,-0.3,-3.7%
Cc1nnc(Sc2cc(NCCO)c([N+](=O)[O-])c3nonc23)s1,?,?,-2.1,6,-0.9,0.8%
O=C(Nc1nccs1)C1CC=CC2CCN(Cc3ccc(Cl)c(Cl)c3)C(=O)C21 (configuration not stated),.,.,1.1,26,0.4,.
S=C(Nc1ccccc1)N1N=CCC1c1ccccc1 (configuration not stated),1%,-3%,-5.4,-9,1.3,-4.1%
O=[N+]([O-])c1ccc(N/N=C/C=C/c2ccco2)cc1,-2%,5%,.,2,12,1.3%
O=C(CCNC(=O)c1ccccc1)NCc1ccccc1F,-1%,-17%,.,55,1.6,?
CNC(=S)NNC(=O)c1cn(C)nc1C,8%,-5%,-3.2,0,-0.9,.
Cc1ccc(Nc2c3c(nc4nncn24)CCC3)cc1C,.,.,.,-6,0.9,1.1%
O=C(CSc1nnc(CN2CCCCC2)n1-c1ccccc1)c1ccc2c(c1)OCO2,-8%[15.4 µM],-11%,1.9,3,-0.2,1.5%
O=C(NCC1CCCCC1)c1cc(S(=O)(=O)N2CCCCC2)ccc1Cl,-2%,-2%,.,-3,-0.5,0.7%
